# PV pol inh – poliovirus RdRp elongation inhibitors, primary screen, biochemical, fluorescence polarization, total intensity; poliovirus polymerase elongation; hits give low values; Genome polyprotein (Poliovirus type 1 (strain Mahoney)), P03300; % elongation, % (compound at 16.7 µg/mL); hit rate 0.66% among 150,000; in the data active = % elongation below about 90%; note: some results filed as inactive read as strong as hits
# MbtI inh – MbtI salicylate synthase inhibitors, primary screen, biochemical, fluorescence intensity; P9WFX0; purified MbtI enzyme, fluorescence intensity read-out; inhibition, %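 (about 17 µg/mL by stock and volumes)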; hit rate 0.89% among 100,000; AID 493033, 2011;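 active = above 50% in both replicates, above 80% if mildly self-fluorescent; inactive = the rest, strongly fluorescent compounds included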;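 note: 0% = mean of negative and 100% = mean of positive controls; one replicate is shown; some compounds called inactive have numbers as strong as hits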
# Target sequence (P9WFX0 whole entry, looked up): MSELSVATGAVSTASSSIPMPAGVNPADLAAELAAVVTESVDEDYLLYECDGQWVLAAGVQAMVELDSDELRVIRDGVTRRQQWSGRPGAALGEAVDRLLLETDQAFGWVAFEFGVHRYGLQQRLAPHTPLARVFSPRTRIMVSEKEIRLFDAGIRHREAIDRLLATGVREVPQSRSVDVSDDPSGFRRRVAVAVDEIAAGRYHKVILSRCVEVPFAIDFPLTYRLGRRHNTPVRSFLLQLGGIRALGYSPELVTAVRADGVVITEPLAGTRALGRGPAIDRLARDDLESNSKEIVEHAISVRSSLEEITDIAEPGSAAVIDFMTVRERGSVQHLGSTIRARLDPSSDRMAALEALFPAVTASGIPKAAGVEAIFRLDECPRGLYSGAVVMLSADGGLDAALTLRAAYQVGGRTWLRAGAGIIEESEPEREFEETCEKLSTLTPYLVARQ
# Mtb MenB inh – M. tuberculosis MenB inhibitors, primary screen, biochemical, absorbance; 1,4-dihydroxy-2-naphthoyl-CoA synthase (Mycobacterium tuberculosis (strain ATCC 25618 / …; MenB enzyme assay, absorbance read-out; some hits fall short of the stated cut; inhibition, %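 (about 12 µg/mL by stock and volumes)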; hit rate 0.43% among 100,000;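 active = mean of two replicates above 30%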;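 note: 0% = no compound and 100% = wells with inactive enzyme; the first replicate is given; strong numbers were not always called active; inactives centre near -10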
# Target sequence (P9WNP5 whole entry, looked up): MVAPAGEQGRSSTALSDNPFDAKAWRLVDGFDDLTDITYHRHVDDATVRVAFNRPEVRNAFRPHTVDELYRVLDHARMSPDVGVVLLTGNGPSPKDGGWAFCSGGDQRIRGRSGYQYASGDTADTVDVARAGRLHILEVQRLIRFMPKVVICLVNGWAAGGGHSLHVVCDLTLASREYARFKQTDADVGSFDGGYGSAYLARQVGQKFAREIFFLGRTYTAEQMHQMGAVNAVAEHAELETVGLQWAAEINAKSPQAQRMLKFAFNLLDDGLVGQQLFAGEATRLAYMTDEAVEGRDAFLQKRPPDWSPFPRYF
# PV pol inh intensity – also measured in PV pol inh; calls as there; % elongation; measured here: total intensity read-out; formula for this scale not given here;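 total fluorescence in place of polarization; lower means less elongation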
# Starred values were filed as active, the others as inactive; i = inactive; nt = not tested or not shown; & = joins results of further samples; ! = repeats disagree. Compounds were not picked by outcome (roughly 1.8% active in at least one column).
entry	Molecule	PV pol inh	PV pol inh intensity
1	COc1cc2nc(CNCCCN3CCCC3=O)[nH]c(=O)c2cc1OC	104	110
2	CN(C(=O)c1ccc(Cl)cc1)c1ccc(Cl)cc1C(=O)c1ccccc1	107	110
3	COc1ccc(OCC(O)CNS(=O)(=O)c2ccc(NC(C)=O)cc2)cc1 (configuration not stated)	105	105
4	CCCCNC(=O)c1ccc2c(=O)n(Cc3ccco3)c(=S)[nH]c2c1	101	102
5	CN(CC(=O)Nc1ccc(Cl)c(Cl)c1)CC(=O)N1CCNC1=O	105	87
6	COc1ccc(OCCSc2nc3ccccc3o2)cc1	104	95
7	CCOC(=O)CC(N)=S	105	99
8	COc1cc(OC)c(C(=O)N2CCCC2)cc1OC	105	99
9	c1ccc(CSc2ccc(-c3cccs3)nn2)cc1	103	105
10	O=c1cc(CN2CCc3ccccc3C2)occ1OCc1ccc(F)cc1	106	102

entry	MbtI inh	Mtb MenB inh
1	12	-26
2	-15	-10
3	-1	-20
4	6	-24
5	-7	-12
6	nt	-18
7	61	-61
8	nt	-7
9	-8	-39
10	8	-28

# Next part
entry	Molecule	PV pol inh	PV pol inh intensity
11	COC(=O)c1csc(C(=O)OC)c1C	103	106
12	CCOC(=O)C1=C(N2CCOCC2)CC(c2ccccc2)(C(F)(F)F)NC1=O (configuration not stated)	105	101
13	COC(=O)C1=C(C)N(c2ccc(F)cc2)/C(=C/c2ccco2)C1=O	101	99
14	COc1ccc(NC(=O)c2nn(C)c3c2COc2ccccc2-3)cc1	101	103
15	CN(CC1COc2ccccc2O1)C(=O)/C=C/c1ccc(S(=O)(=O)NCc2ccco2)cc1 (configuration not stated)	103	107
16	CSc1ccccc1NC(=O)CSc1nc2ccc(C)cc2[nH]1	102	102
17	O=C(OC1CCCC1)c1cccnc1Cl	101	103
18	O=C(c1cnn(C(=S)NCCN2CCOCC2)c1)c1ccccc1O	104	113
19	CC1CC(C)CN(C(=O)CCc2ccccc2)C1 (configuration not stated)	104	96
20	O=C(Oc1ccc2ccccc2c1)C1c2ccccc2Oc2ccccc21	105	106

entry	MbtI inh	Mtb MenB inh
11	nt	2
12	8	2
13	-15	-16
14	0	13
15	9	-28
16	3	-14
17	17	nt
18	-11	-21
19	nt	3
20	-10	-13

# (list continues)
entry	Molecule	PV pol inh	PV pol inh intensity
21	CC(C)(C)CC(C)(C)NC(=O)Nc1ccc(F)cc1	103	104
22	CC(=O)Oc1ccc(C2OC(=O)c3ccccc3N2C(C)=O)cc1 (configuration not stated)	105	108
23	COc1ccc(OC)c(NC(=O)/C=C/c2ccc(S(=O)(=O)N3CCOCC3)cc2)c1	101	103
24	OC(c1n[nH]c(=S)n1-c1ccccc1)C(O)c1n[nH]c(=S)n1-c1ccccc1 (configuration not stated)	105	108
25	Cc1cc(=O)[nH]c(SCC(=O)Nc2ccccc2C#N)c1C#N	104	102
26	COc1ccc(-c2cc(-c3ccccc3)[nH]c(=S)c2C#N)cc1	107	107
27	O=S(=O)(NCC1COC2(CCCCC2)O1)c1ccc(Cl)s1 (configuration not stated)	104	108
28	CCOC(=O)N1CCN(C(=O)CCS(=O)(=O)c2ccc(Br)s2)CC1	102	100
29	COc1ccc(NC(=O)CNC(N)=O)cc1NS(=O)(=O)c1ccc(F)cc1	105	109
30	CCN(CC)S(=O)(=O)c1ccc2oc(Nc3ccccc3)nc2c1	103	109

entry	MbtI inh	Mtb MenB inh
21	-18	-29
22	i	-15
23	9	-10
24	nt	-18
25	-83	-12
26	nt	-37
27	-11	-14
28	2	-14
29	9	-4
30	9	-21

# More results
entry	Molecule	PV pol inh	PV pol inh intensity
31	CC(C)(C)c1ccc(O)c(CN2CCN(c3ccccc3)CC2)c1	100	103
32	NC(=O)c1ccc(NC(=O)COC(=O)CCN2C(=O)c3ccccc3C2=O)cc1	105	107
33	COC(=O)CN1C(=O)Nc2ccc(C)cc2C1c1ccccc1 (configuration not stated)	101	101
34	Cc1ccc(C)c(NC(=O)CN(C)C(=O)COc2ccccc2C#N)c1	103	97
35	O=C(CN1CCCC1c1ccc2c(c1)OCCCO2)Nc1ccc(S(=O)(=O)N2CCCCC2)cc1 (configuration not stated)	106	118
36	Cc1n[nH]c(=S)n(/N=C/c2cccs2)c1=O	98	103
37	Cc1n[nH]c(=O)c2c1nnn2Cc1ccc(F)cc1	103	102
38	CN(C1CCCCC1)S(=O)(=O)c1ccccc1NC(=O)COc1ccccc1C#N	108	112
39	CCOc1ccc(-c2nc3ncccn3c2NCc2ccccc2OC)cc1OC	102	104
40	COC(=O)c1sccc1Oc1ccc(C(F)(F)F)cc1NC(=O)c1ccccc1OC	103	98

entry	MbtI inh	Mtb MenB inh
31	3	-20
32	-9	-1
33	-3	7
34	-3	-7
35	-12	-10
36	13	-2
37	-20	16
38	-17	-10
39	-19	-14
40	6	-27

# The last 7 compounds of the part before are carried over, then new ones follow:
entry	Molecule	PV pol inh	PV pol inh intensity
34	Cc1ccc(C)c(NC(=O)CN(C)C(=O)COc2ccccc2C#N)c1	103	97
35	O=C(CN1CCCC1c1ccc2c(c1)OCCCO2)Nc1ccc(S(=O)(=O)N2CCCCC2)cc1 (configuration not stated)	106	118
36	Cc1n[nH]c(=S)n(/N=C/c2cccs2)c1=O	98	103
37	Cc1n[nH]c(=O)c2c1nnn2Cc1ccc(F)cc1	103	102
38	CN(C1CCCCC1)S(=O)(=O)c1ccccc1NC(=O)COc1ccccc1C#N	108	112
39	CCOc1ccc(-c2nc3ncccn3c2NCc2ccccc2OC)cc1OC	102	104
40	COC(=O)c1sccc1Oc1ccc(C(F)(F)F)cc1NC(=O)c1ccccc1OC	103	98
41	Cc1cc(=O)oc2cc(NC(=O)c3cccc(S(=O)(=O)N4CCCC4)c3)ccc12	103	99
42	O=C(/C=C/c1ccc2c(c1)OCO2)OCC(=O)N1CCOCC1	103	106
43	CCS(=O)(=O)c1ccc(I)s1	102	104
44	NC(=S)NN=C1C2CC3CC(C2)CC1C3	82*	85*
45	NC1=CC(=O)CCC1	101	100
46	Cn1c(C(C#N)C(=O)c2cncc(Br)c2)nc2ccccc21 (configuration not stated)	100	103
47	CSc1nc2c(cnn2-c2ccc(C)cc2)c(=O)[nH]1	99	104
48	N#C/C(C(=O)N1CCCC1)=c1/s/c(=C\c2ccc(-c3ccc(S(N)(=O)=O)cc3)o2)c(=O)n1-c1ccccc1	44	231
49	O=C(Cn1nc(-c2ccco2)ccc1=O)Nc1cccc2ccccc12	100	106
50	CS(=O)(=O)N(Cc1ccccc1)c1ccc(C(=O)NCCSc2ccccn2)cc1	101	96

entry	MbtI inh	Mtb MenB inh
34	-3	-7
35	-12	-10
36	13	-2
37	-20	16
38	-17	-10
39	-19	-14
40	6	-27
41	12	2
42	-8	-17
43	-6	-50
44	51	-20
45	22	13
46	1	nt
47	-4	6
48	11	-43
49	-18	-30
50	2	-37

# (cont.)
entry	Molecule	PV pol inh	PV pol inh intensity
51	O=S(=O)(c1cccc(C(F)(F)F)c1)N1CCN(c2ncccn2)CC1	103	103
52	Cc1ccc(NC(=O)c2nc[nH]c2C(=O)N2CCCCC2)c(C(=O)c2ccccc2)c1	103&102	105&101
53	Cn1c2c(c3cc(C4CCCCC4)ccc31)CCCCC2=O	100	93
54	CCOc1ccc(CN(C)CC(=O)NC2CC2)cc1OC	101	97
55	O=C(c1cn(Cc2ccccc2Cl)nc1-c1ccccc1)N1CCN(C2CCS(=O)(=O)C2)CC1 (configuration not stated)	103	101
56	CCOC(=O)c1c(OCC)[nH]c2ccc(O)cc12	99	101
57	Cc1ccc(S(=O)(=O)c2ccc(Cl)cc2)cc1S(=O)(=O)N1CCCC1	102	96
58	COc1cc2c(cc1OC)C(c1ccccc1)N(C(=O)S(C)(=O)=O)CC2 (configuration not stated)	103	105
59	CCN(CC)C(=O)C1CCCN1S(=O)(=O)c1cccc2nsnc12 (configuration not stated)	102	108
60	Cc1ccc2c(c1)c1nnc(SCC(=O)N3CCCCC3C)nc1n2C (configuration not stated)	101	102

entry	MbtI inh	Mtb MenB inh
51	-7	-11
52	-4&3	39*!
53	nt	-27
54	1	-5
55	-1	-14
56	-4	16
57	-8	-11
58	4	-10
59	8	-11
60	2	2

# Additional structures.
entry	Molecule	PV pol inh	PV pol inh intensity
61	O=C(OCC(=O)N1CCCCC1)C(c1ccccc1)c1ccccc1	102	103
62	CC1CCCC(NC(=O)CCCn2c3ccccc3c3cn[nH]c(=O)c32)C1C (configuration not stated)	105	104
63	CC(C)C(NC(=O)c1ccccc1)C(=O)O (configuration not stated)	100	102
64	O=C(O)C1C2C=CC(C2)C1C(=O)Nc1ccccc1O (configuration not stated)	109	107
65	COc1ccc(C(=O)Nc2ccc(NC(=O)c3ccco3)c(Cl)c2)cc1Br	99	100
66	COc1ccc(N2CC(C(=O)Nc3ccccc3)CC2=O)cc1 (configuration not stated)	102	105
67	O=C(Nc1nc(-c2ccccc2)cs1)c1ccc(S(=O)(=O)N2CCCCC2)cc1	103	98
68	Cc1ccccc1NCN1C(=O)C2=C(CCCC2)C1=O	102	105
69	O=C(COc1ccccc1)Nc1ccc(C(O)(C(F)(F)F)C(F)(F)F)cc1	102	105
70	COc1ccc(CN(CCN(C)C)c2ncccn2)cc1	100	104

entry	MbtI inh	Mtb MenB inh
61	-1	nt
62	15	-18
63	-7	-19
64	nt	-1
65	4	-40
66	nt	-9
67	-19	-21
68	-17	-9
69	-6	nt
70	-21	7

# (continued)
entry	Molecule	PV pol inh	PV pol inh intensity
71	O=C(CSc1ccccc1)N1CCCCC1	101	100
72	Cc1cc(-c2nnc(CSc3nc4ccc(Cl)cc4[nH]3)o2)c(C)o1	106	115
73	COc1ccc(N=Cc2ccccc2OCc2ccccc2)cc1	103	102
74	O=C(CN1C(=O)COc2ccc(Cl)cc21)N1CCCC1	104	104
75	C=CCN(c1ccccc1)S(=O)(=O)c1ccc(F)c(C(=O)Nc2ccc(C(C)C)cc2)c1	102	104
76	CC1(C)OC2C(O1)[C@@H](CO)O[C@H]2n1cnc2c(N)ncnc21 (some centres not stated)	103	100
77	COc1ccc(C(N)=CC(=O)C(C)(C)C)cc1	99	102
78	O=C(c1cnn2c(C(F)(F)F)cc(-c3ccccc3)nc12)N1CCOCC1	102	104
79	Cc1ccccc1OC(C)C(=O)NCc1ccccc1 (configuration not stated)	98	103
80	CCCNC(=O)c1oc2ccc3c(c2c1C)C(=O)CC(C)(C)O3	105	101

entry	MbtI inh	Mtb MenB inh
71	-7	-18
72	-1	-6
73	nt	-25
74	-4	3
75	-9	-24
76	-1	-1
77	20	-21
78	-8	-38
79	-9	-30
80	30	1

# Additional structures
entry	Molecule	PV pol inh	PV pol inh intensity
81	O=C(Cc1n[nH]c(=O)c2ccccc12)NC1=NCCS1	111	111
82	CN(C(=O)CSCc1ccco1)c1ccccc1	103	100
83	CSC(=S)Nc1ccc(-c2nc3ccc(C)cc3s2)cc1	103	98
84	COC(=O)c1ccc(S(=O)(=O)NCCNc2cccc(C(F)(F)F)n2)n1C	101	97
85	C/S(=N\S(=O)(=O)c1cccc2nsnc12)c1ncc(Cl)cc1C(F)(F)F (configuration not stated)	101	97
86	CCc1ccc(NC(=O)/C(C#N)=C/c2ccc(-c3ccc(S(=O)(=O)N4CCOCC4)cc3)o2)cc1	145	167
87	COc1ccc(N2C(=O)Cc3ccc(OC)cc3C2=O)cc1	102	104
88	CC(C)(C)c1ccc(-c2noc(CSc3n[nH]c(=O)n3-c3cccnc3)n2)cc1	107	112
89	CN(C)[C@@H]1C(=O)C(C(N)=O)=C(O)[C@@]2(O)C(=O)C3=C(O)c4c(O)cccc4[C@@](C)(O)[C@H]3C[C@@H]12	99&98	104&101
90	O=c1c2ccccc2c(/C=N/c2n[nH]c(CCCO)n2)c(O)n1-c1ccccc1Cl	nt	nt

entry	MbtI inh	Mtb MenB inh
81	-5	-2
82	0	nt
83	-14	nt
84	-7	8
85	2	-12
86	14	-25
87	3	1
88	-16	-5
89	3&-6	-1&1
90	-5	-168

# New compounds follow.
entry	Molecule	PV pol inh	PV pol inh intensity
91	CN(C)C(CNC(=O)CN1C(=O)c2ccccc2C1=O)c1ccccc1 (configuration not stated)	103	98
92	CCC(=O)N1CCN(c2nnc(-c3ccccc3)c3ccccc23)CC1	100	92
93	CC1(C)CC(NCc2cn(CCC#N)nc2-c2ccccc2)CC(C)(C)N1	100	98
94	CCOC(=O)N1CCN(Cn2nc(-c3ccc(Cl)cc3)n(Cc3ccccc3)c2=S)CC1	101	104
95	COc1cc(C(=O)OC(Cc2ccccc2)C(F)(F)F)cc(OC)c1OC (configuration not stated)	105	115
96	Cc1ccc(SCC(=O)Nc2cc(C)on2)cc1	103	109
97	CN1CCN(C(=S)c2ccc(F)cc2)CC1	102	102
98	CCOC(=O)c1ccccc1NC(=O)CSCc1ccccc1	99	104

entry	MbtI inh	Mtb MenB inh
91	-3	-13
92	-15	-3
93	10	-17
94	-30	-5
95	0	-24
96	-19	-12
97	17	2
98	26	5

# Compound activity: PubChem BioAssay, ICCB-Longwood Screening Facility, Harvard Medical School
